HPGD inh = HPGD (human) dehydrogenase inhibition. P15428. purified HPGD, NADH fluorescence kinetic, PGE2 substrate. Potency, µM, for inactives: top-dose activity change, negative = inhibition, most hits filed as inhibitors. 150,000 compounds, 4.3% hits. AID 894; active = well fitted inhibition curve with a large enough effect (not every such curve was filed as active); inconclusive = small, poorly fitted or top-dose-only effect, or another doubt; inactive = no such curve, though single readings can be large or run the other way;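 further: top concentration of the series not given in the record; plate controls included wells without enzyme; inactives centre near -10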
Target sequence (P15428 whole entry, looked up): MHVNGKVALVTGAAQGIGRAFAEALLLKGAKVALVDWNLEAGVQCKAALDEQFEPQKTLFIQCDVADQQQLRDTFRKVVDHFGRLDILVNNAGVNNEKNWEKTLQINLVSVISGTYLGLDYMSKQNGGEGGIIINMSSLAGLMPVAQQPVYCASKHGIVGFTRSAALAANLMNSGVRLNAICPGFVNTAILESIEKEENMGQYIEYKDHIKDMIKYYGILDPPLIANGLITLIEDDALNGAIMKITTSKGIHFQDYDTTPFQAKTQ
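20 nM HPGD preincubated 15 min at room temperature with compound in 50 mM Tris-HCl pH 8, 0.01% Tween 20. Started with 1 mM NAD+ and 30 uM prostaglandin E2; NADH fluorescence (360/450 nm) read 5 times over 30-s intervals, last minus first.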
* = called active by the depositor; ? = inconclusive; [ ] = dose if it differs, or a comment. On the % scale 0 is the no-effect control and ±100 the full control effect; potency means the concentration at half of the fitted maximal effect. An excerpt, so the mix of outcomes need not match the whole.

SMILES	HPGD inh
COc1ccc(N2C(=O)C3CCCN3C2c2ccc(C)cc2)cc1Cl (stereo unspecified)	-6.6%
COc1ccc(/C=N/NC(=O)C2c3ccccc3Oc3ccccc32)c(OC)c1	-8.3%
O=C(N1CCOCC1)N1CCN(c2nc(-c3ccccc3)cs2)CC1	-13.5%
CCC(C)N(C(=O)Cn1nnc2ccccc21)C(C(=O)NCc1ccco1)c1cccc(OC)c1 (stereo unspecified)	-7.6%
O=C(CSc1n[nH]c(-c2ccco2)n1)Nc1sc2c(c1C(=O)Nc1ccccc1)CCCC2	-7.1%
CC(=O)Nc1ccc(C(=O)OCC(=O)Nc2ccc([N+](=O)[O-])cc2C(F)(F)F)cc1	-4.2%
C/C=C(\C)CN1CCN(c2cccc(C)c2C)CC1	?
Cn1cc(C(c2ccccn2)c2cn(C)c3ccccc23)c2ccccc21	-6.4%
O=C(Nc1cccc2ncccc12)c1ccc(F)cc1	-4.4%
CCNc1nc(NCC)nc(C(=O)Nc2ccccc2)n1	-9.8%
CCCN1CC=C2C(C#N)=C(N)C(C#N)(C#N)C(c3cc(OC)ccc3OC)C2C1 (stereo unspecified)	?
CC(C)N(Cc1nc(-c2ccccc2)no1)S(=O)(=O)c1ccccc1	-12.4%
CCC(C(=O)NNC(=O)c1cnccn1)c1ccccc1 (stereo unspecified)	-4.7%
O=c1cc(Nc2ccc3c(c2)OCCO3)[nH]c(=O)n1-c1ccc(Cl)cc1	-4.5%
C=CCc1c(C)nc(C)nc1N/N=C/c1ccc([N+](=O)[O-])cc1	-9.4%
Nc1sc2c(c1C(=O)NC1CCS(=O)(=O)C1)CCCC2 (stereo unspecified)	?
CCOc1ccccc1N1CC(C(=O)Nc2ccccc2N2CCOCC2)CC1=O (stereo unspecified)	2.8%
Cc1cc(C)nc(SCC(=O)N2CCC(C(N)=O)CC2)n1	-16.7%
CCCSc1nc2c(cnn2-c2ccc(F)cc2)c(=O)[nH]1	-4.1%
c1ccc(N/N=C(\Cc2nc3ccccc3[nH]2)c2ccccc2)cc1	?
O=C(CN1CCOCC1)Nc1cc(Cl)ccc1Cl	-16.2%
Cc1cccc(-n2c(CNC(=O)c3ccc(S(=O)(=O)N4CCCC4)cc3)n[nH]c2=S)c1	-23.0%
COc1ccc(-n2ncc3c(NCC4CCCO4)ncnc32)cc1 (stereo unspecified)	?
Cc1ccc(CN2C(=O)CCC2C(=O)NCCCN2CCOCC2)cc1 (stereo unspecified)	-0.5%
Cc1cc(Br)cn2ccnc12	-8.6%

Rewritten bar-delimited: 5 of the compounds above
smiles | HPGD inh
COc1ccc(/C=N/NC(=O)C2c3ccccc3Oc3ccccc32)c(OC)c1 | -8.3%
COc1ccc(-n2ncc3c(NCC4CCCO4)ncnc32)cc1 (stereo unspecified) | ?
Cc1cc(Br)cn2ccnc12 | -8.6%
Cc1ccc(CN2C(=O)CCC2C(=O)NCCCN2CCOCC2)cc1 (stereo unspecified) | -0.5%
O=C(Nc1cccc2ncccc12)c1ccc(F)cc1 | -4.4%

Reformatted with values ahead of the structure: entries from further up
HPGD inh | SMILES
-4.1% | CCCSc1nc2c(cnn2-c2ccc(F)cc2)c(=O)[nH]1
? | c1ccc(N/N=C(\Cc2nc3ccccc3[nH]2)c2ccccc2)cc1
-16.2% | O=C(CN1CCOCC1)Nc1cc(Cl)ccc1Cl
-23.0% | Cc1cccc(-n2c(CNC(=O)c3ccc(S(=O)(=O)N4CCCC4)cc3)n[nH]c2=S)c1

Next part.
SMILES	HPGD inh
CCn1cc(C(=O)Nn2cnnc2)c(=O)c2ccc(C)nc21	0.9%
COc1cccc(C(=O)COc2ccc3c(C)c(Cc4ccccc4)c(=O)oc3c2)c1	139.7%[activator]
Cc1noc(C)c1CSc1nnnn1-c1ccc(Cl)cc1	-14.1%
NC(=O)N/N=C/c1cc(Br)ccc1OCC(=O)NCc1ccccc1	?
CCn1c(SCC(=O)N2CCCCC2)nc2c(c1=O)SC(C)C2 (stereo unspecified)	-19.4%
O=S(=O)(Nn1cnnc1)c1ccccc1	-5.0%
Cc1cc(=O)oc2c(CN3CCN(C)CC3)c(O)c(Cl)cc12	?
CCOc1cc(C)ccc1OCc1nnc(SCC(=O)c2cccc([N+](=O)[O-])c2)n1CC	-6.6%
Cc1ccc(C(=O)NCCSc2snnc2C)cc1	-22.1%
O=C(Nc1ccccc1C(F)(F)F)c1cc2ncc(CCCl)cn2n1	?
COC(=O)/C(Cc1cc(Br)c(OC)c(Br)c1O)=N/O	-8.8%
Cc1ccc(SCc2noc(C(=O)NCC3CCCO3)c2C(=O)O)cc1C (stereo unspecified)	-6.5%
COc1ccc(C)cc1N(C(=O)c1ccccc1F)c1nc2ccccc2s1	-4.5%
CC(=O)Nc1ccc(-n2cnnn2)cc1	1.0%
CCCC(CCC)n1[nH]c(=O)c2c(C)cc(C)nc21	-10.1%
CCOC(=O)Nc1ccc2c(c1)N(C(=O)OC)c1ccccc1CC2	-3.1%
CCOC(=O)c1c(NC(=O)CCN2CCOCC2)sc2c1CC(C)(C)OC2	-3.8%
Cc1ccc(-n2c(Cc3cccn3C)nnc2SCC(=O)Nc2nnc(C)s2)cc1	-9.9%
Cc1ccc2nc(-c3ccccc3)cc(C(=O)O)c2c1	-24.4%
CCS(=O)(=O)N1CCC(C(=O)NCCCN2CCN(c3ccccc3F)CC2)CC1	3.0%
CC1(C)CC(=O)C2=C(C1)Oc1ncn(CCCO)c(=N)c1C2c1ccccc1 (stereo unspecified)	-5.6%
CCOC(=O)C1=C(C)N=C2SCCC(=O)N2C1c1ccc(C(=O)OC)cc1 (stereo unspecified)	-14.2%
NC(=S)NNC(=O)Nc1cccc(Cl)c1	0.4%
COc1ccc(CCNC2CC(=O)N(CCc3ccccc3)C2=O)cc1 (stereo unspecified)	-23.3%
Cc1cc(-c2c(C)[nH]n(-c3ccccc3)c2=O)n(-c2ccccc2)n1	-13.6%
The list continues.
SMILES	HPGD inh
Cc1nc(C)c2c(c1C(F)(F)F)-c1ccccc1C2(F)F	-15.3%
Cc1nc2ccc(S(=O)(=O)NCC(=O)O)cc2s1	-3.8%
O=C(N/N=C/c1ccc(-c2cccc(C(F)(F)F)c2)o1)c1cccc(F)c1	?
Cc1ccc(C(=O)CSc2nnc(COc3cccc4cccnc34)o2)cc1	?
O=C(NCCc1ccncc1)c1ccccc1F	-9.7%
CC1CN=C(N(C(=O)Nc2ccccc2)C(C)C)S1 (stereo unspecified)	-11.1%
Cc1ccc(SCc2ccc(C(=O)NCc3ccncc3)cc2)cc1	?
O=C(CSCC(=O)NC1CC1)Nc1ccccc1	-6.9%
CCOC(=O)CN1CC23C=CC(O2)C(C(=O)Nc2ccc(F)cc2)C3C1=O (stereo unspecified)	-1.2%
Cc1cc(C)c2c(-n3cccc3)c(NC(=O)OCc3ccccc3)sc2n1	-16.2%
COc1ccccc1CNC(=O)c1cc2c(s1)CS(=O)(=O)C2	-7.5%
O=C(NCCCN1CCc2ccccc2C1)C1CCN(S(=O)(=O)N2CCCC2)CC1	-8.7%
O=C(Nc1ccsc1C(=O)NC1CCCCC1)c1ccc(F)cc1	-18.5%
COc1cc(/C=C/C(=O)OCC(=O)NC(=O)NC(C)(C)C)ccc1OCC#N	?
CCn1c(=O)cc(SCC(=O)N(C)Cc2ccccc2)c2ccccc21	-26.1%
COC(=O)c1ccc(C(c2c(N)n(CC(C)C)c(=O)[nH]c2=O)N2CCN(c3ccccc3)CC2)cc1 (stereo unspecified)	-25.3%
CC(=O)NC(Cc1ccc(C)cc1)C(=O)NC1CCN(c2ncccc2[N+](=O)[O-])CC1 (stereo unspecified)	4.0%
CC(C)(C)SCCNC(=O)c1ccc(Cl)c([N+](=O)[O-])c1	28.2µM*
O=C(NCCc1c[nH]c2ccccc12)C(=O)NCC1OCCN1S(=O)(=O)c1ccc(Cl)cc1 (stereo unspecified)	-7.1%
Cn1c(NC(=O)c2ccc(F)c(F)c2)cc(=O)n(C)c1=O	-3.5%
O=C(O)C1CCCCC1C(=O)NC1CCCCC1 (stereo unspecified)	-9.0%
CN1CCN(C(=O)CSc2ccc(C(F)(F)F)cc2[N+](=O)[O-])CC1	-1.5%
O=C(CSc1nc2ccccc2[nH]1)N/N=C/C=C\c1ccccc1[N+](=O)[O-]	-9.0%
CCOC(=O)C1CCN(S(=O)(=O)c2c(C)[nH]c(=O)[nH]c2=O)CC1	2.3%
O=C1C2CC=CCC2C(=O)N1c1ccc(NCCc2ccccc2F)c([N+](=O)[O-])c1 (stereo unspecified)	-15.8%
(next part)
SMILES	HPGD inh
CCOC(=O)Cn1nc(-c2ccccc2)ccc1=O	-9.3%
Cc1cccc2cc(CN(CC3CCCO3)S(=O)(=O)c3ccccc3)c3nnnn3c12 (stereo unspecified)	-12.2%
CCOc1ccccc1OCCCC(=O)Nc1sccc1C(N)=O	?
CC1(C)C(=O)CC[C@@]2(C)C1CC(O)[C@@]1(C)C3=CC(=O)OC(c4ccoc4)[C@]3(C)CCC21 (stereo partly specified)	-7.0%
COc1ccc(S(=O)(=O)N2CCC(C(=O)Nc3cccc(C(C)=O)c3)CC2)cc1C	-7.3%
Cc1csc(SCC(=O)Nc2cccc(S(=O)(=O)N3CCCC3)c2)n1	-0.8%
CCCCC(=O)Nc1ccc(C(=O)Nc2ccc(OC)cc2[N+](=O)[O-])cc1	-23.7%
COc1ccc(C(=O)Nc2ccccc2Cc2ccccc2)c(OC)c1	-5.8%
CCc1ccc2[nH]c(=O)c(C(c3nnnn3Cc3ccccc3)N3CCOCC3)cc2c1 (stereo unspecified)	-15.8%
CCn1ncc2c(OCc3ccc(C#N)cc3)cc(C)nc21	-11.4%
COc1cc(/C=N/NC(=O)c2ccccn2)cc2c1OCO2	-11.8%
CCOC(=O)Cn1c(CN2CCOCC2)nc2c1c(=O)[nH]c(=O)n2C	-14.6%
CCn1nnnc1SCC(=O)N1c2ccccc2CCc2ccccc21	-6.8%
CS(=O)(=O)N1CCN(c2ccccc2NC(=O)CSc2nnc(-c3ccco3)o2)CC1	-10.3%
O=C1CC(N2CCN(c3ccccc3Cl)CC2)C(=O)N1c1ccc(F)cc1 (stereo unspecified)	-4.7%
COc1ccc(C2C=C(c3ccc(C)cc3)Nc3ncnn32)cc1 (stereo unspecified)	?
CCCCCCCn1c(=N)n(CC(=O)c2ccco2)c2ccccc21	-6.3%
Cc1cc(Cl)c(OCCN2C(=O)NC(C)(C)C2=O)c(Br)c1	-2.2%
CCn1c(=O)c2c(nc(SCC(=O)NCC3CCCO3)n2C)n(C)c1=O (stereo unspecified)	-10.1%
O=C(COC(=O)c1ccc2c(c1Cl)C(=O)c1ccccc1C2=O)NC1CCCCC1	6.31µM*
CCOc1ccc(C(=O)Nc2c3c(nn2-c2ccc(C)cc2)CS(=O)C3)cc1OCC (stereo unspecified)	-3.9%
COc1cc2[nH]c(=S)n(C3CCCC3)c(=O)c2cc1OC	-2.6%
NC(N)=N[C@H](CC(=O)O)c1ccccc1	-8.8%
COc1ccc(/C=C2\CCc3ccccc3C2=O)cc1Cn1nc(C)cc1C	-3.9%
Cc1ccc(C)c(N2CCN(S(=O)(=O)c3c(C)noc3/C=C/N(C)C)CC2)c1	-11.4%
Going on with the list.
SMILES	HPGD inh
COCC(=O)n1cc(C(=O)OC)c2ccccc21	-5.0%
O=C1O[C@H](CN2CCOCC2)CN1/N=C\c1ccc([N+](=O)[O-])o1	-2.3%
COc1ccc(C2Nc3ccccc3C(=O)N2c2ccc(C)cc2)cc1COc1ccccn1 (stereo unspecified)	?
CC(NO)/C(=N\O)c1cccs1 (stereo unspecified)	-16.7%
O=C(Cc1cnn(-c2ccccc2)c1)c1ccc(O)c(O)c1O	28.2µM*
CCCCNC(=O)C(c1ccc(OCC(=O)OC)c(C(=O)OC)c1)N(CCOC)C(=O)CCCCCN1C(=O)NC(c2ccc(-c3ccccc3)cc2)C(C(=O)OCc2ccccc2)=C1C (stereo unspecified)	-15.7%
COC(=O)/C=c1/sc2n(c1=O)CCN=2	?
NC(=O)C[C@H](NC(=O)Cc1ccc(O)cc1O)C(=O)O	-9.3%
Cc1cc(C(=O)CSc2n[nH]c(N)n2)c(C)n1-c1cccc(F)c1	-17.1%
COc1ccc(-c2ncccc2O)cc1	?
Cc1cc(C)nc(/N=C2\NC(=O)CC(C(=O)O)N2c2ccc(Cl)cc2)n1 (stereo unspecified)	-5.0%
Fc1ccc(-c2cnc[nH]2)cc1	-10.3%
COc1ccc(CCNc2c([N+](=O)[O-])c(=O)oc3ccccc23)cc1OC	15.8µM*
Cc1cc(OCCCCNC(C)C)cc(C(C)C)c1	6.0%
Cc1ccccc1NC(=O)c1ccc(CN2CCc3ccccc3C2)cc1	-8.1%
FC(F)Oc1ccc(/C=N/c2c(-c3ccc(OC(F)F)cc3)nc3n2CCS3)cc1	?
COc1ccc(NC2=CC(c3cccc(OC)c3)N(c3ccc(OC)cc3)C2=O)cc1 (stereo unspecified)	?
Cc1nc2sccc2c(=O)n1-c1cccc(Cl)c1	-9.3%
CC(C)Oc1nc(-c2ccccc2O)nc2ccccc12	-2.9%
COc1ccc(OC)c(N(CC(=O)Nc2ccccc2C(=O)NCc2ccco2)S(C)(=O)=O)c1	-12.8%
O=S(=O)(c1ccccc1)c1nc(-c2cccs2)oc1NCCCn1ccnc1	-17.6%
CCOC(=O)c1c(NC(=O)C2CCCO2)sc(C(=O)OC(C)(C)C)c1C (stereo unspecified)	?
O=C1COC(c2ccccc2)C2CCCCN12 (stereo unspecified)	-2.8%
CC(=O)c1c(C)nn(C(=O)N2CCOCC2)c1C	-11.7%
Cc1ccccc1-n1c(=O)cc(NCc2ccc3c(c2)OCO3)[nH]c1=O	-23.3%
Cn1cccc1C(=O)N1CCC2(CC1)CCN(c1ccncc1)CC2	-1.0%
CCOC(=O)c1c(N)c(C#N)c2n1CCCC2	-11.4%
O=C(NC1CCCCC1)NC1CC2CCC(C1)N2C(=S)NCc1ccco1 (stereo unspecified)	3.8%
